# AmpC inh no det: blocks E. coli AmpC beta-lactamase in absence of detergent | P00811 | AmpC nitrocefin hydrolysis, absorbance 480 nm, no detergent; potencies from a single point are estimates | Potency, µM (highest dose often 28.7 µM), for inactives: at the highest dose activity change, negative = inhibition | 1.8% of 71,000 active | AID 585; active = falling curve, for most hits resting on a single point; inconclusive = weak or doubtful change; inactive = flat or rising curve; further: % of control where 0% means no effect; about half of the hits show no inhibition at the top dose; a quarter of the inactives give rising signals
# Target sequence (P00811 whole entry, looked up): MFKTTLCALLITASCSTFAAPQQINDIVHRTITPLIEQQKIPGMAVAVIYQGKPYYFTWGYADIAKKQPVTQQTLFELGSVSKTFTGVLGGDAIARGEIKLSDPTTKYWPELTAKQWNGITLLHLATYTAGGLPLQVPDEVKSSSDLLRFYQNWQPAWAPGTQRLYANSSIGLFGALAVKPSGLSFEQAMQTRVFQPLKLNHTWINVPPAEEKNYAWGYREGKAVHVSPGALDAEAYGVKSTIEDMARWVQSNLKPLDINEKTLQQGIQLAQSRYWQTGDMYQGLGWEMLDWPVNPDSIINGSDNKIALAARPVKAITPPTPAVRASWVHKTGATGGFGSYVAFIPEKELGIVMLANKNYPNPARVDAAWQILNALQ
#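 AmpC in 20 mM phosphate buffer pH 7.0 was preincubated 15 min at room temperature with compounds. Nitrocefin (800 uM stock) was then added and hydrolysis followed at 480 nm every 20 s for 4 min.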
# The depositor's hits bear a star; & = joins results of further samples; [ ] = another dose, or the depositor's remark. Potency means the concentration at half of the fitted maximal effect.
# The opening 2 compounds, to show the layout:
Structure | AmpC inh no det
Cc1nc(C)c(C(=O)Nc2ccc(Oc3ccccc3)cc2)o1 | 47%
N[C@H](CC(=O)O)C(=O)O | 5%&-7%

# Results, previewed entries included:
Structure | AmpC inh no det
Cc1nc(C)c(C(=O)Nc2ccc(Oc3ccccc3)cc2)o1 | 47%
N[C@H](CC(=O)O)C(=O)O | 5%&-7%
COc1ccc(OCC(=O)Nc2cccc(NC(=O)COc3ccc(OC)cc3)n2)cc1 | -3%
O=C(CSc1nnc2ncccn12)N1CCCCCC1 | -6%
COc1cc(C)c(Cl)cc1S(=O)(=O)NCC1CCCO1 (stereo unspecified) | 37%
COc1ccc(C2CC(C(F)(F)F)n3nc(C(=O)O)c(Cl)c3N2)cc1OC (stereo unspecified) | -2%
COc1ccc(N2C(=O)CC(Sc3nnc(-c4ccccc4)o3)C2=O)cc1 (stereo unspecified) | 13%
CCOC(=O)c1cccc(NC(=O)CN(c2ccc(C)cc2)S(=O)(=O)c2c(C)noc2C)c1 | 2%
COc1cc(C(=O)Nc2c(-c3ccccn3)c(=O)c3ccccc3n2C)cc(OC)c1OC | 54%
CC(=O)OC(C(=O)NC1CCCCC1)c1ccc(C#N)cc1 (stereo unspecified) | 3%
CCOc1cc2[nH]c(=O)n(CCCC(=O)NCc3ccco3)c(=O)c2cc1OCC | 27%
Cn1c(=O)c2nc(-c3ccc(Cl)cc3Cl)oc2c2ccccc21 | 2.5µM*
COc1ccc(NC(=O)C(c2ccccc2)N(C)C(=O)c2cnccn2)cc1 (stereo unspecified) | 24%
c1ccc2[nH]c(CSc3nnc(-c4ccncc4)o3)nc2c1 | 8%
O=C(O)c1cccc(NC(=O)C23CC4CC(C2)CC(n2cnc(Cl)n2)(C4)C3)c1 | -4%
NC(=O)CS(=O)C[C@H](N)C(=O)O (stereo partly specified) | 2%[5.75 µM]
N=c1n(CCN2CCCC2)c2ccccc2n1CC(O)c1ccco1 (stereo unspecified) | -9%
Cc1cc(C(=O)NC(C)C)on1 | 3%
COc1ccc(OC)c(NC(=O)CSc2nnc(C)n2Cc2ccccc2)c1 | 64%
Cc1cc(C)c2c(n1)nn1c(NCCCN3CCOCC3)cc(C)nc21 | 25%
CC1(C)CC(=O)C2=C(C1)Nc1ccccc1NC2c1nc2ccccc2[nH]1 (stereo unspecified) | -3%
O=C(COC(=O)CNC(=O)c1ccc(Br)o1)Nc1ccc2c(c1)OCCO2 | -16%
C=CCn1c(SCC(=O)N2CCOCC2)nc2scc(-c3ccco3)c2c1=O | 107%
CC(C)CN1CCC2(CC1)CCN(C(=O)Oc1ccccc1)CC2 | 17%
COCCn1c(=O)[nH]c2cc(C(=O)N3CCN(c4ccccc4OC)CC3)ccc2c1=O | 57%

# Laid out differently: entries from further up.
O=C(O)c1cccc(NC(=O)C23CC4CC(C2)CC(n2cnc(Cl)n2)(C4)C3)c1
  AmpC inh no det = -4%

NC(=O)CS(=O)C[C@H](N)C(=O)O (stereo partly specified)
  AmpC inh no det = 2%[5.75 µM]

N=c1n(CCN2CCCC2)c2ccccc2n1CC(O)c1ccco1 (stereo unspecified)
  AmpC inh no det = -9%

Cc1cc(C(=O)NC(C)C)on1
  AmpC inh no det = 3%

# Further entries
Structure | AmpC inh no det
Cc1nc2c(n1O)CCC/C2=N\O | -16%
CCOC(=O)CCCNC(=O)COC(=O)c1cccc(C)c1O | 35%
CC(=O)Nc1cccc(C(=O)OCc2ccccc2)c1 | 22%
Cc1cnc(C)c(N2CCC(C(=O)NCc3ccco3)CC2)n1 | 13%
Cc1nnc(SCc2cc(=O)[nH]c(N3CCN(Cc4ccccc4)CC3)n2)s1 | 35%
CCC(c1nnnn1Cc1ccc(F)cc1)N(CCCO)Cc1cc2cc3c(cc2[nH]c1=O)OCO3 (stereo unspecified) | 85%
c1ccc2c(c1)CCCN2Cc1nnnn1CC1CCCO1 (stereo unspecified) | 3%
CC(C)Oc1ccc(C2CC(=O)N(c3cccc(C(=O)O)c3)C2=O)cc1 (stereo unspecified) | -1%
O=C(O)[C@@H](S)[C@H](S)C(=O)O | 6%[5.75 µM]
CCc1nnc(NC(=O)CSc2nnc(COc3ccc(C#N)cc3)n2-c2ccccc2)s1 | 49%
CCCn1c(=O)c(C)cn2nc(N)nc12 | 6%
C[n+]1cc2c3c(ccc2c2ccc4cc5c(cc4c21)OCO5)OCO3 | -10%[12.8 µM]
CN(C)c1ccc(NC(=O)CC2NCCNC2=O)cc1 (stereo unspecified) | -4%
O=C(c1cnccn1)N1CCC2(CC1)CN(Cc1nccs1)C2 | 2%
Oc1ccc(-c2nc(-c3ccc(O)c(O)c3)cs2)cc1 | -24%
CCS(=O)(=O)N1CCN(C(=O)CC(C)C)CC1 | 9%
CC(=O)N(C(C)=O)c1ccc2nc(C)[nH]c(=O)c2c1 | -7%
COc1cccc(OC)c1C(=O)Nc1ccc(CN2CCCCC2)cc1 | 6%
NC1=CC(=O)c2cccc3cccc1c23 | -12%
COc1cccc(NS(=O)(=O)c2cc(C)sc2C)c1 | -6%
O=C(NC1(C(F)(F)F)NC(=O)N(Cc2ccco2)C1=O)c1cccnc1 (stereo unspecified) | 8%
CCN(CC)Cc1cc2ccccc2c2c1COC2 | -4%
Cc1nnc(SCCn2c(N3CCCC(C)C3)nc3c2c(=O)n(C)c(=O)n3C)s1 (stereo unspecified) | 4%
O=C(C1CCCN(S(=O)(=O)c2ccccc2)C1)N1CCCCCC1 (stereo unspecified) | 43%
c1ccc2oc(SCc3cn4ccsc4n3)nc2c1 | 0%
COc1ccccc1CCn1cnc2c3cc(C)ccc3n(C)c2c1=O | 91%
C=CCn1c(N)c(C(=O)NCC2CCCO2)sc1=S (stereo unspecified) | 6%
Cc1[nH]c(=O)[nH]c(=O)c1S(=O)(=O)N1CCCC(C(=O)NCCc2ccc(Cl)cc2)C1 (stereo unspecified) | -10%
O[C@H](CCCN1CCN(c2ncc(F)cn2)CC1)c1ccc(F)cc1 | 40%
Cc1ccc(S(=O)(=O)NC(CC(=O)NC2CCCC2)c2ccco2)cc1 (stereo unspecified) | -1%
CCc1c(C)nc2ncnn2c1N1CCC(C(=O)Nc2cccc(C(C)=O)c2)CC1 | 75%
CCCC(=O)NCCCc1nc2ccccc2n1CC | 8%
Cc1ccc2oc(=O)ccc2c1 | 5%
Cc1ccc(-c2nnn(CC(=O)Nc3cccc4c3CCCC4)n2)o1 | -9%
CC(CCC(=O)Nc1nncs1)C(=O)O (stereo unspecified) | 2%
O=C(CSc1nc2ccc(S(=O)(=O)N3CCOCC3)cc2[nH]1)N1CCOCC1 | -13%
CC(C)(C)c1ccccc1OCCN1CCCC1 | 7%
CC(C)CSc1nc2c(c(=O)[nH]c(=O)n2C)n1CC(O)COc1cccc2ccccc12 (stereo unspecified) | 64%
COCCN(CC(=O)NCc1ccc(OC)cc1)C(=O)CCC(=O)Nc1nccs1 | 4%
CCOC(=O)c1c(NC(=O)c2nn(CC)cc2Br)sc2c1CCCCC2 | -6%
Cc1nc(Nc2ccccc2)c2nc(-c3ccccc3)n(CCCN3CCCCC3C)c2n1 (stereo unspecified) | 84%
COc1ccc(OCC(=O)NCc2cccnc2)cc1 | 12%
CN(C)c1oc(-c2ccco2)nc1C#N | -15%
COc1ccc(CCn2c(N3CCN(C)CC3)nc3c2c(=O)[nH]c(=O)n3C)cc1 | 0%
C#CCSc1nnc(-c2ccccc2)c(=O)[nH]1 | -6%
COc1ccc(C(N)=O)cc1NC(=O)CC(O)(C(F)(F)F)C(F)(F)F | 3%
Cc1cc(C(=O)Nc2ccc(S(=O)(=O)Nc3onc(C)c3C)cc2)c(C)o1 | -8%
O=C(COc1ccc(Cl)cc1)NCc1nnc(SCC(=O)NC2CCCC2)o1 | 25%
CC(C)CCNC(=O)CCS(=O)(=O)c1cccc2nonc12 | 0%
O=S(=O)(NCCSc1ccccc1)c1ccc(F)cc1 | -23%

# Remaining list, next part:
Structure | AmpC inh no det
COCCNC(=O)C(c1ccco1)N(C(=O)Cn1nnc2ccccc21)c1ccccc1C (stereo unspecified) | 45%
COc1ccc(OC)c2c(=S)c3ccccc3[nH]c12 | -20%
COC(=O)Nc1nc2ccc(C(=O)c3ccccc3)cc2[nH]1 | 1%[12.8 µM]
Cc1noc(C)c1-c1ccc2ncnc(N3CCOCC3)c2c1 | 25%
CCOC(=O)CNC(=O)Cn1cnc2ccc(S(=O)(=O)N3CCC(C)CC3)cc2c1=O | 35%
Cc1ccc(S(=O)(=O)NCCSc2nnc(N)s2)cc1 | -14%
COc1ccc(CCN(Cc2cc3cc(C)ccc3[nH]c2=O)C(=O)N2CCCC2)cc1OC | 89%
Cc1cccc(NC(=O)CCn2ccnc2C)c1 | 0%
CCOC(=O)Cc1csc(NC(=O)CN2C(=O)c3ccccc3S2(=O)=O)n1 | -13%
COC(=O)c1cc(OC)c(OCc2cc(C(=O)OC)oc2C)c(OC)c1 | 16%
c1ccc(CSc2nnc3c(n2)OC(c2ccco2)Nc2ccccc2-3)cc1 (stereo unspecified) | -23%
CC(Sc1nncs1)C(=O)NCc1ccc2c(c1)OCO2 (stereo unspecified) | 0%
CCOC(=O)c1c(C)c(C(=O)NCc2cccs2)c(C)n1CC | 15%
CCNc1ncc2nc(CCc3ccccc3)c(=O)n(C3CC3)c2n1 | 12%
O=C(c1ccc(Cl)cc1)N1CCC(c2nc(-c3cccs3)no2)CC1 | 83%
O=C(CSc1nnc(-c2ccccc2Cl)o1)N1CCCCC1 | 19%
COc1ccc(CCN(Cc2nc3ccccc3c(=O)[nH]2)C(=O)c2ccco2)cc1OC | 26%
COC(=O)C1=C(C)N(c2ccc(F)cc2)C(=O)C1 | 7%
Cc1cc(C(=O)NCc2cc(C(=O)O)oc2C)c(C)o1 | 8%
COC(=O)c1ccc(C(NC(=O)OCc2ccccc2)/C(C)=C/[C@@H](C)C(=O)N2CCN(C)CC2)cc1 (stereo partly specified) | 147%
O=S(=O)(Nc1cccc2ccccc12)N1CCCC1 | -5%
Cc1noc(N)c1C(=O)Nc1ccc(F)c(Cl)c1 | -6%
CCOC(=O)Cn1c(=N)n(CCOc2cccc(C)c2)c2ccccc21 | 40%
COc1ccc(-c2nc(NC(=O)CSc3nnc(C)s3)ns2)cc1 | -6%
O=C1CC(c2cccc(F)c2)C2=C(CCCC2=O)N1 (stereo unspecified) | -23%
CCN(CC)S(=O)(=O)c1ccc(-c2nnc(SCC(=O)Nc3ccc4c(c3)OCO4)o2)cc1 | 0%
O=C(c1coc(=O)c2ccccc12)N1CCN(Cc2ccccc2)CC1 | 32%
O=C(C1CC1c1ccccc1)N1CCN(c2cccc(Cl)c2)CC1 (stereo unspecified) | 29%
Cc1cnc(C(=O)Nc2ccc(N3CCN(C(=O)OC(C)(C)C)CC3)cc2)cn1 | 62%
O=C(Nc1nccs1)c1ccc(S(=O)(=O)N2CCCCC2)cc1 | -2%
O=C(c1cn(-c2ccccc2)nc1-c1ccncc1)N1CCCCC1 | 29%
[O-][Cl+2]([O-])O | -4%
CCOC(=O)Cc1[nH]nc2c1C(C1C=CCCC1)C(C#N)=C(N)O2 (stereo unspecified) | -5%
COc1ccc(OCCSc2nnc3sc4ccccc4n23)cc1 | 52%
COc1ccc(C(=O)Nc2nc(C)c(C(=O)N(C)C)s2)cc1OC | 21%
COc1ccc(OC)c(C2NC(=O)NC(C)=C2C(=O)Nc2ccc(C)cc2C)c1 (stereo unspecified) | 28%
CCOC(=O)C1=C(C)NC(C)=C(C(=O)OC)[C@@H]1c1cccc(Cl)c1Cl | 55%[12.8 µM]
c1nc(N2CCCCC2)c2[nH]cnc2n1 | 1%
COc1ccc(C2NCc3ccc4c(c3-n3cccc32)OCO4)cc1O (stereo unspecified) | 69%
Cc1c(Cl)ccc2c1NC(=O)C21NC(CCC(N)=O)[C@H]2C(=O)N(c3ccc(Cl)cc3)C(=O)[C@H]21 (stereo partly specified) | 84%
O=C(c1ccc(Cl)cc1)c1nnc(-c2ccncc2)o1 | 8%
Cc1csc(SCc2nc3sc4c(c3c(=O)[nH]2)CCC4)n1 | -1%
O=C(O)CCc1ccc(-c2ccccc2)n1CC1CCCO1 (stereo unspecified) | 7%
O=C(Nc1c(F)c(F)c(F)c(F)c1F)NC1CCCCC1 | 2%
O=C(NCCN1CCOCC1)N1CCOCC1 | -17%
Cc1cccc2nc(CSc3nnnn3-c3ccccc3)cn12 | 16%
CC1(C)Cc2c(C#N)c(N3CCCC3)nc(-c3ccco3)c2CO1 | 40%
COC(=O)c1ccc(C)c(NC(=O)Cc2coc3cc(OC)ccc23)c1 | 15%
COCCn1c(N2CCN(c3ccc(OC)cc3)CC2)nc2c1c(=O)[nH]c(=O)n2C | 30%
CCOC(=O)N1CCN(C(=O)Nc2ccc3nc(-c4ccccn4)c(-c4ccccn4)nc3c2)CC1 | 78%

# (listing goes on)
Structure | AmpC inh no det
Cc1ccc(S(=O)(=O)Cc2ccc(C(=O)N3CCN(c4ccc(F)cc4)CC3)o2)cc1 | 88%
Cc1ccc(NC(=O)Cn2cnc3c(cnn3C(C)(C)C)c2=O)cc1 | 13%
Cc1ccsc1C1CC(=O)NC2=C1C(=O)CC(C)(C)C2 (stereo unspecified) | 6%
CN(C)c1ccc(-c2cc(-n3ccnc3)ncn2)cc1 | 43%
COC(=O)c1ccccc1NC(=O)CSc1n[nH]c(CC(C)C)n1 | 10%
CC(C)CNc1nc2ncnc(N)c2[nH]1 | -6%[5.75 µM]
COc1ccc(NC(=O)CSc2ncn(-c3ccccc3)n2)cc1Cl | -4%

# Bioassay records deposited in PubChem BioAssay by National Center for Advancing Translational Sciences (NCATS).

# Not all compounds are listed; count on the stated rates, not on these rows.
